Screening data as filed in PubChem BioAssay.
HSV augment = increases HSV replication in cells; maximum fold increase; hit rate 0.005% among 220,000; HSV replication augmentation in cells, fold increase;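 active = peak rise of 1.5-fold or more in the series; tested in PC3 cells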;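 also: first round at 10 µM; read as green reporter fluorescence; hits show the peak of a series up to 25 µM; 1 = signal of infected wells without compound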
GALR2 agonist = agonists of human galanin receptor 2 (GALR2) | GALR2-expressing cells, agonist activation read-out | hit rate 0.48% among 140,000 | AID 803 | O43603 | activation, %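 (tested at 5 µM)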;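 active = above mean plus 3 SD of all compounds, about 5% in these data, not always enough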;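 also: 0% = vehicle buffer wells and 100% = reference agonist at full effect; tested in CHO reporter cells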
Target sequence (O43603 whole entry, looked up): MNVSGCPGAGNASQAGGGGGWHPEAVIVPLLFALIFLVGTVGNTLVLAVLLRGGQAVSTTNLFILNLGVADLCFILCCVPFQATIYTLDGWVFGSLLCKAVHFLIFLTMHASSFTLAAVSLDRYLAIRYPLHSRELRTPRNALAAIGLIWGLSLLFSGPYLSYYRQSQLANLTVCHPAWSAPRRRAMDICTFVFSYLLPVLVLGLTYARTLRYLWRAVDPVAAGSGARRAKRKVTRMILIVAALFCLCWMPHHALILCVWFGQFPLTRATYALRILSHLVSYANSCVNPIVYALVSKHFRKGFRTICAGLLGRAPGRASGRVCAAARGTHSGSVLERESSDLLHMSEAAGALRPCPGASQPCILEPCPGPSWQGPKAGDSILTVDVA
PKD1 inh = blocks activity of human protein kinase D1. Q15139. PKD1 kinase fluorescence polarization assay. inhibition, %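 (about 10 µM by stock and volumes)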. hit rate 0.056% among 200,000. AID 797;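 active = inhibition of 50% or more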;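 also: controls were vehicle for no effect and a reference inhibitor for full effect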
RGS16-Gao HTS = modulates binding between human RGS16 and Galphao; O15492+P09471; bead-based flow cytometry RGS16-Galphao binding, fluorescence; actives lie on both sides; binding response (% of control), % at 10 µM; hit rate 0.38% among 220,000; AID 1441;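 active = below 25% or above 175%, edge rows of some plates excepted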;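 also: Galphao activated by GDP with aluminum fluoride before binding; 100% = wells without compound and 0% = beads without RGS; some results beyond the cut were filed as inactive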
Target sequence (O15492 whole entry, looked up): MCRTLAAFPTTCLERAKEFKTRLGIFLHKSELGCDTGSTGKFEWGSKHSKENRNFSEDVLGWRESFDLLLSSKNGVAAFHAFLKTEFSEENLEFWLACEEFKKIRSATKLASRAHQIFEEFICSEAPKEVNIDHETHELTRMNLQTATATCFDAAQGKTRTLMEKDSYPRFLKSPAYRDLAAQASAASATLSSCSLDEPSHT
Target sequence (P09471 whole entry, looked up): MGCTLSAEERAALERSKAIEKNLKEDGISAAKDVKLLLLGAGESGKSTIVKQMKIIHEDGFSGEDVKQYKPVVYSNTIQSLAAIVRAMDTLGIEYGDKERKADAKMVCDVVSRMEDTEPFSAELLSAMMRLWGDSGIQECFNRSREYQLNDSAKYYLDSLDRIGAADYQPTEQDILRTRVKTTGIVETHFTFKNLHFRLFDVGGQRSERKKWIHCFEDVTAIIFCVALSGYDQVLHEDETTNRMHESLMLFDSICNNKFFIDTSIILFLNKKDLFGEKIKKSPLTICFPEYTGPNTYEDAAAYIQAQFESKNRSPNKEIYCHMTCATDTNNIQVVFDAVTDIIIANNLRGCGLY
INS promoter inh = TRM-6 insulin promoter activity inhibition; inhibition, % at 2 µM; AID 1273; hit rate 0.9% among 130,000; TRM-6 cells (human fetal islet line), insulin promoter-eGFP reporter, imaging; reporter expression induced with tamoxifen;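 active = inhibition above the mean plus 3 SD, with well images judged a real hit on visual review, cut at about 60% in these data, passing the limit was not always enough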
INS promoter inh cell count = also measured in INS promoter inh; calls as there; normalized cell count, %; measured here: cell count, toxicity; reference of the scale not given here;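 cells exposed to compound for 48 h; stained nuclei by imaging scaled within each plate; lower means fewer cells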
HSV augment primary fold = recorded beside HSV augment, whose call it bears; fold increase; compound at 10 µM; measured here: primary screen fold increase 10 uM; tested in PC3 cells;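 GFP signal in the first replicate; 1 = infected wells without compound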
* hit, by the source's call.

COc1cc(C2Nc3ccc4ncccc4c3C3=C2C(=O)CCC3)cc(OC)c1OC (stereo not drawn) was read as HSV augment inactive, PKD1 inh -9.1, RGS16-Gao HTS 64.9 and HSV augment primary fold 1.1.
`S=C(c1ccccc1)N(c1ccccc1)c1ccccc1` gave HSV augment inactive, GALR2 agonist -2.5, PKD1 inh -8.1, RGS16-Gao HTS 102.3, INS promoter inh -3.3, INS promoter inh cell count 111.3 and HSV augment primary fold 1.
Screening Cc1ccc(S(=O)(=O)N2C(=S)SCC2(C)C)cc1 returned HSV augment inactive, GALR2 agonist 0.0, PKD1 inh 19.4, RGS16-Gao HTS 108.7 and HSV augment primary fold 1.04.
COc1ccc([N+](=O)[O-])cc1NC(=O)COC(=O)c1ccc(O)cc1 was read as HSV augment inactive, RGS16-Gao HTS 97.2 and HSV augment primary fold 1.28.
O=C(NCc1ccccc1)N[C@@H](Cc1ccccc1)C(=O)O was read as HSV augment inactive, GALR2 agonist -4.1, PKD1 inh -1.9, RGS16-Gao HTS 43.6, INS promoter inh 35.1, INS promoter inh cell count 73.8 and HSV augment primary fold 0.8.
O=C(Nc1ccccc1)n1ccc(-c2ccc(-n3ccnc3)cc2)n1 was read as HSV augment inactive, PKD1 inh 4.4, RGS16-Gao HTS 107.2, INS promoter inh 17.1, INS promoter inh cell count 102.5 and HSV augment primary fold 0.93.
For Cc1ccc(S(=O)(=O)CC(=O)NC(C)(C)C)cc1 the results were HSV augment inactive, GALR2 agonist -1.4, PKD1 inh -7.1, RGS16-Gao HTS 103.9, INS promoter inh 37.5, INS promoter inh cell count 115.7 and HSV augment primary fold 1.07.
For OCCN(CCO)CC(O)Cn1c2ccccc2c2ccccc21 (stereo not drawn) the results were HSV augment inactive, GALR2 agonist -1.5, PKD1 inh 17.9, RGS16-Gao HTS 100.8, INS promoter inh 7.1, INS promoter inh cell count 56.0 and HSV augment primary fold 0.97.
`O=C(N/N=C/c1ccco1)C1CC(=O)N(c2ccccc2)C1` (stereo not drawn) gave HSV augment inactive, PKD1 inh -9.3, RGS16-Gao HTS 94.3 and HSV augment primary fold 0.97.
O=C(CCl)NCCNC(=O)c1cc(OCC(F)(F)F)ccc1OCC(F)(F)F was read as HSV augment inactive, PKD1 inh -6.8, RGS16-Gao HTS 89.8 and HSV augment primary fold 0.91.
Screening CCN(C(=O)c1cc(Cl)ccc1OC)C1CCCCC1 returned HSV augment inactive, GALR2 agonist -0.3, PKD1 inh -3.4, RGS16-Gao HTS 101.4, INS promoter inh -19.4, INS promoter inh cell count 158.9 and HSV augment primary fold 0.99.
Screening CCOC(=O)CN1C(=O)C(O)=C(C(C)=O)C1c1ccccc1 (stereo not drawn) returned HSV augment inactive, GALR2 agonist -0.3, PKD1 inh -8.8, RGS16-Gao HTS 101.5, INS promoter inh -21.2, INS promoter inh cell count 123.0 and HSV augment primary fold 0.86.
Screening COc1ccc(Cl)cc1NC(=S)NCCc1c[nH]c2ccccc12 returned HSV augment inactive, GALR2 agonist -1.1, PKD1 inh -2.2, RGS16-Gao HTS 102.0 and HSV augment primary fold 0.91.
For COCc1cc(C)nc(SCC(=O)Nc2cccc3cccnc23)c1C#N the results were HSV augment inactive, GALR2 agonist 1.0, PKD1 inh -11.8, RGS16-Gao HTS 107.7 and HSV augment primary fold 0.77.
Screening CCOc1ccc(NC(=O)Nc2ccccc2SC)cc1 returned HSV augment inactive, PKD1 inh -3.4, RGS16-Gao HTS 101.2 and HSV augment primary fold 1.06.
Screening CCc1[nH]nc2c1C(c1ccc(C)o1)C(C#N)=C(N)O2 (stereo not drawn) returned HSV augment inactive, PKD1 inh 6.3, RGS16-Gao HTS 99.3 and HSV augment primary fold 1.14.
CC(C)(C)OCC(NC(=O)C(CC(N)=O)NC(=O)OC(C)(C)C)C(=O)OC(C)(C)C (stereo not drawn) was read as HSV augment inactive, GALR2 agonist -0.2, PKD1 inh 3.1, RGS16-Gao HTS 101.9, INS promoter inh 15.4, INS promoter inh cell count 113.1 and HSV augment primary fold 0.93.
`COc1ccc(NC(=O)NC23CC4(C)CC(C)(CC(C)(C4)C2)C3)cc1OC` gave HSV augment inactive, GALR2 agonist 0.1, PKD1 inh -10.8, RGS16-Gao HTS 131.3 and HSV augment primary fold 1.07.
For COc1ccc(NC(=O)CS(=O)CC(=O)NC2CCCc3ccccc32)cc1 (stereo not drawn) the results were HSV augment inactive, GALR2 agonist -0.6, PKD1 inh -12.4, RGS16-Gao HTS 99.6, INS promoter inh -28.6, INS promoter inh cell count 130.6 and HSV augment primary fold 0.95.
`CC(C)Sc1nnc(NC(=O)CCc2ccccc2)s1` gave HSV augment inactive, PKD1 inh -2.8, RGS16-Gao HTS 98.9 and HSV augment primary fold 1.12.

A draw from above in order of length of the SMILES, rising.
Screening COc1ccc(Cl)cc1NC(=S)NCCc1c[nH]c2ccccc12 returned HSV augment inactive, GALR2 agonist -1.1, PKD1 inh -2.2, RGS16-Gao HTS 102.0 and HSV augment primary fold 0.91.
O=C(Nc1ccccc1)n1ccc(-c2ccc(-n3ccnc3)cc2)n1 was read as HSV augment inactive, PKD1 inh 4.4, RGS16-Gao HTS 107.2, INS promoter inh 17.1, INS promoter inh cell count 102.5 and HSV augment primary fold 0.93.
COc1ccc([N+](=O)[O-])cc1NC(=O)COC(=O)c1ccc(O)cc1 was read as HSV augment inactive, RGS16-Gao HTS 97.2 and HSV augment primary fold 1.28.
COc1cc(C2Nc3ccc4ncccc4c3C3=C2C(=O)CCC3)cc(OC)c1OC (stereo not drawn) was read as HSV augment inactive, PKD1 inh -9.1, RGS16-Gao HTS 64.9 and HSV augment primary fold 1.1.
`COc1ccc(NC(=O)NC23CC4(C)CC(C)(CC(C)(C4)C2)C3)cc1OC` gave HSV augment inactive, GALR2 agonist 0.1, PKD1 inh -10.8, RGS16-Gao HTS 131.3 and HSV augment primary fold 1.07.

Remaining list, next part:
CC(NC(=O)C1CCCC1)C1CC2CCC1C2 (stereo not drawn) was read as HSV augment inactive, GALR2 agonist -3.5, PKD1 inh -1.1, RGS16-Gao HTS 103.0, INS promoter inh 71.4*, INS promoter inh cell count 110.1* and HSV augment primary fold 1.01.
`Nn1cnnc1SCC(=O)N(C1CCCCC1)C1CCCCC1` gave HSV augment inactive, PKD1 inh 6.7, RGS16-Gao HTS 99.7, INS promoter inh 0.0, INS promoter inh cell count 161.7 and HSV augment primary fold 0.96.
For COc1cc(S(=O)(=O)N2CCN(c3ccc(F)cc3)CC2)ccc1Cl the results were HSV augment inactive, GALR2 agonist -3.3, PKD1 inh 2.9, RGS16-Gao HTS 104.2 and HSV augment primary fold 0.91.
`O=C(Nc1nccs1)Oc1ccccc1` gave HSV augment inactive, GALR2 agonist -1.6, PKD1 inh 0.5, RGS16-Gao HTS 101.9 and HSV augment primary fold 0.89.
COc1ccc(C2CC(C(F)(F)F)n3ncc(C(=O)NCc4cccnc4)c3N2)cc1OC (stereo not drawn) was read as HSV augment inactive, GALR2 agonist 4.1, PKD1 inh -0.1, RGS16-Gao HTS 99.9, INS promoter inh 20.7, INS promoter inh cell count 46.7 and HSV augment primary fold 0.79.
COc1ccc(S(=O)(=O)N2CCC(C(=O)NCC3CCCO3)CC2)cc1OC (stereo not drawn) was read as HSV augment inactive, PKD1 inh -3.8, RGS16-Gao HTS 100.1 and HSV augment primary fold 1.13.
`Oc1c(C=Nc2cccc3cccnc23)sc2ccccc12` gave HSV augment inactive, GALR2 agonist -1.2, PKD1 inh -38.4, RGS16-Gao HTS 98.8, INS promoter inh -207.1, INS promoter inh cell count 111.3 and HSV augment primary fold 1.14.
Screening COc1ccc(CCNC(=O)CC2Nc3cc(C)c(C)cc3NC2=O)cc1OC (stereo not drawn) returned HSV augment inactive, GALR2 agonist -0.8, PKD1 inh 5.7, RGS16-Gao HTS 90.4, INS promoter inh 50.0, INS promoter inh cell count 98.5 and HSV augment primary fold 1.1.
`O=S(=O)(c1ccc(N2CCCC2)nc1)N1CCOCC1` gave HSV augment inactive, GALR2 agonist -0.5, PKD1 inh 1.2, RGS16-Gao HTS 104.2, INS promoter inh 11.4, INS promoter inh cell count 50.5 and HSV augment primary fold 1.
For CS(=O)(=O)N1CCc2cc(-c3csc(NC(=O)Cc4cccs4)n3)ccc21 the results were HSV augment inactive, GALR2 agonist -2.7, PKD1 inh -0.6, RGS16-Gao HTS 111.6 and HSV augment primary fold 0.85.
Screening CCNC(=S)NNC(=O)c1ccncc1 returned HSV augment inactive, PKD1 inh 1.5, RGS16-Gao HTS 105.1 and HSV augment primary fold 0.94.
For CCc1cc(=O)oc2cc(OCC(=O)OC)c(Cl)cc12 the results were HSV augment inactive, GALR2 agonist -2.1, PKD1 inh -0.1, RGS16-Gao HTS 93.3, INS promoter inh 17.8, INS promoter inh cell count 103.4 and HSV augment primary fold 1.01.
Cn1c(COc2ccccc2)nnc1SCc1nc2ccccc2[nH]1 was read as HSV augment inactive, GALR2 agonist 0.1, PKD1 inh -6.2, RGS16-Gao HTS 100.8, INS promoter inh 2.6, INS promoter inh cell count 52.6 and HSV augment primary fold 0.77.
Screening CC(=O)C1=C(C)Nc2ncnn2C1c1cccc(OCc2ccccc2)c1 (stereo not drawn) returned HSV augment inactive, GALR2 agonist -0.1, PKD1 inh -1.2, RGS16-Gao HTS 80.7 and HSV augment primary fold 0.91.
Fc1ccccc1Cc1noc(CN2CCN(C/C=C/c3ccccc3)CC2)n1 was read as HSV augment inactive, PKD1 inh -0.5, RGS16-Gao HTS 93.7 and HSV augment primary fold 1.03.
Screening O=C(c1ccc(-c2cccc(Cl)c2)o1)N1CCN(c2ccc([N+](=O)[O-])cc2)CC1 returned HSV augment inactive, GALR2 agonist -0.3, PKD1 inh -8.9, RGS16-Gao HTS 104.0 and HSV augment primary fold 0.87.
`O=C1S/C(=C/c2ccccc2F)C(=O)N1CCN=C1NS(=O)(=O)c2ccccc21` gave HSV augment inactive, GALR2 agonist -1.1, PKD1 inh -5.5, RGS16-Gao HTS 118.3, INS promoter inh -19.4, INS promoter inh cell count 61.7 and HSV augment primary fold 0.87.
CCCSc1nc(N)c(C#N)c(-c2ccc(C)cc2)c1C#N was read as HSV augment inactive, GALR2 agonist 0.8, PKD1 inh -6.4, RGS16-Gao HTS 100.2, INS promoter inh -29.7, INS promoter inh cell count 184.5 and HSV augment primary fold 0.86.
Screening O=C(NCCN1CCOCC1)c1ccc(F)cc1 returned HSV augment inactive, GALR2 agonist -0.2, PKD1 inh -3.2, RGS16-Gao HTS 100.7, INS promoter inh 57.1, INS promoter inh cell count 78.3 and HSV augment primary fold 0.78.
`COc1ccc(OC)c(C(=O)CSc2nnnn2C)c1` gave HSV augment inactive, GALR2 agonist -0.4, PKD1 inh -4.0, RGS16-Gao HTS 103.2, INS promoter inh 25.0, INS promoter inh cell count 87.0 and HSV augment primary fold 0.72.
`CCCCn1c(SCC(=O)Nc2cc(C)on2)nc2ccsc2c1=O` gave HSV augment inactive, GALR2 agonist -2.9, PKD1 inh -5.7, RGS16-Gao HTS 82.1 and HSV augment primary fold 1.06.
CCn1cc(CNC(=O)CC2C(=O)NCCN2CC(c2ccccc2)c2ccccc2)cn1 (stereo not drawn) was read as HSV augment inactive, PKD1 inh -8.6, RGS16-Gao HTS 102.1 and HSV augment primary fold 1.11.
`N#C/C(=C\c1c(Cl)cccc1Cl)c1nc2ccccc2[nH]1` gave HSV augment inactive, RGS16-Gao HTS 105.1 and HSV augment primary fold 1.14.
Screening O=C(CCC(=O)Nc1cccc(Cl)c1)N/N=C/c1cc([N+](=O)[O-])ccc1O returned HSV augment inactive, PKD1 inh -12.4, RGS16-Gao HTS 86.2 and HSV augment primary fold 0.87.
For Cn1c(C(=O)OC(C(=O)NCC2CCCO2)c2cccnc2)cc2sccc21 (stereo not drawn) the results were HSV augment inactive, PKD1 inh -8.7, RGS16-Gao HTS 109.2 and HSV augment primary fold 0.98.
Screening O=C(N/N=C/c1ccc([N+](=O)[O-])o1)c1cc(-c2ccc(-c3ccccc3)cc2)nc2ccccc12 returned HSV augment inactive, PKD1 inh 6.8, RGS16-Gao HTS 101.5 and HSV augment primary fold 0.79.
For Cc1cccc[n+]1CCCCCCCCCC[n+]1ccccc1C the results were HSV augment inactive, PKD1 inh -6.2, RGS16-Gao HTS 107.3, INS promoter inh 19.1, INS promoter inh cell count 125.8 and HSV augment primary fold 1.02.
